MT1-MMP act inh = blocks activation of human MT1-MMP; P50281; HT1080 RFP-PRO-GFP cells, GFP/RFP ratio fluorescence, overnight; percent of plate control window, DMSO zero; GFP/RFP ratio change, % at 20 µM; 0.061% of 360,000 active; AID 651647;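 active = GFP/RFP ratio change of at least 30% with cell ATP level not reduced by more than half and red fluorescence within 50% of control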; note: strong numbers were not always called active
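Assay system: HT1080 RFP-PRO-GFP cells | Dosing: 20 µM single dose, 1% DMSO | Incubation: Cells overnight before dosing, compound overnight, 37 °C, 5% CO2 | Evaluation: GFP/RFP fluorescence ratio | Control set: DMSO-only wells and HT1080 RFP-L50D-GFP cell wells as references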
Rce1 inhib = inhibitors of yeast Ras-converting enzyme; 0.27% of 290,000 active; yeast membranes, quenched prenylated peptide cleavage fluorescence; Q03530; calls only; AID 2563;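 active = fall in fluorescence gain of 50% or more versus controls, with final raw signal at or below 3038400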;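 note: plate controls were neutral control wells for no effect and wells lacking membranes for full effect; tested at 10 µM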
Target sequence (Q03530 whole entry, looked up): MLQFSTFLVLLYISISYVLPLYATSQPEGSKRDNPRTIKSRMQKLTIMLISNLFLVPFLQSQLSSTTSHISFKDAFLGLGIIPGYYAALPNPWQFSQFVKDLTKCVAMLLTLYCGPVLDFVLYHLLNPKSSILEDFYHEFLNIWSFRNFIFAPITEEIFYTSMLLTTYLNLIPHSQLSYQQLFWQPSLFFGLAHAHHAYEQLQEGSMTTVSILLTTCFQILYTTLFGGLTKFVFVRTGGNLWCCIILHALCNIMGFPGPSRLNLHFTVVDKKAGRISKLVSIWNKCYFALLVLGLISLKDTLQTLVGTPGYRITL
Env fusion inh = blocks HIV Env-driven cell-cell fusion. HeLa-JRFL Env/CEM21 cell fusion, luciferase. inhibition, % at 12.3 µM. 1.1% of 360,000 active;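 active = mean replicate inhibition score of at least 50 and every replicate individually at or above 50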;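 note: 0% = plate neutral controls and 100% = maraviroc near 300 nM; one replicate is shown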
UUG fidelity = modulators of start codon recognition fidelity in yeast; S. cerevisiae UUG-firefly luciferase reporter, luminescence/redox ratio; activity score, % at 18.7 µM; 0.13% of 350,000 active;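 active = replicate mean at a twofold rise or more, about +100% in these data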;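 note: firefly luciferase made from a UUG start codon reports start codon fidelity; reporter light over untreated wells divided by growth signal over untreated wells; some hits fall short of that in this replicate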
eIF4H FP inh = inhibitors of RNA binding by human eIF4H | Q15056 | eIF4H fluorescence polarization binding assay | inhibition, % at 35 µM | 0.94% of 290,000 active | AID 2012;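 active = 50% or more with normal probe brightness, or confirmed in later tests; about a fifth of its hits are not listed in these tables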;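 note: calls also rest on retests at 20 µM and on dose response follow-up; 0% = protein and probe with vehicle and 100% = probe without protein; strong numbers were not always called active; many hits fall short of the cut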
PABP polyA inh = PABP-poly(A) binding inhibition | PABP-poly(A) RNA binding, fluorescence polarization | P11940 | AID 2014 | 1% of 290,000 active | inhibition, % at 35 µM;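 active = 50% or more with normal probe brightness, or confirmed in later tests; about a fifth of its hits are not listed in these tables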;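 note: calls also rest on retests at 20 µM and on dose response follow-up; controls were probe without protein and protein plus probe with vehicle; some compounds called inactive have numbers as strong as hits; many hits fall short of the cut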
CSC inhib = blocks cancer stem cells; inhibition, % at 7.5 µM; cancer stem cell-like cells viability, luminescence; 1.1% of 300,000 active;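 active = mean at 75% or more and at least half the replicates too; tested in HMLE shEcad cells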;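 note: 0% = median of negative and 100% = median of positive control wells; the first replicate is given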
eIF4H FP inh retest = further read-out of eIF4H FP inh, marked with its call; inhibition, %; compound at 20 µM; confirmation average;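 mean of two retest wells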
PABP polyA inh retest = recorded beside PABP polyA inh, whose call it bears; inhibition, %; compound at 20 µM; confirmation repeats;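 mean of two retest wells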
MT1-MMP act inh RFP = recorded beside MT1-MMP act inh, whose call it bears; RFP signal change, %; measured here: RFP expression control read;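 0 = vehicle wells; hits needed this value within 50% of zero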
* marks the source's active call; other numbers are inactive results; i = inactive; . = not tested or not shown. This is a subset, so the mix of outcomes need not match the whole.

SMILES | MT1-MMP act inh | MT1-MMP act inh RFP | Rce1 inhib | Env fusion inh | UUG fidelity | eIF4H FP inh | PABP polyA inh | CSC inhib | others
COc1ccc(NC(=O)C2CCCN(S(=O)(=O)c3ccc4c(c3)CCCN4C(C)=O)C2)cc1 (configuration not stated) | 6 | -1 | i | -1 | 24 | . | . | 4
CC(C)CCNC(=O)c1nn(Cc2ccccc2)c(=O)c2ccccc12 | 0 | 1 | . | -4 | -22 | -3 | -4 | 2
Cc1ccc(/C=N/Nc2nc3ccccc3[nH]2)s1 | 15 | -5 | i | -80 | -5 | 16 | 12 | 30
Cc1c(Br)c(C(F)(F)F)nn1CC(=O)N(C)C1CCCCC1 | 0 | 1 | i | 7 | -12 | 3 | 1 | -10
Cc1ccc(S(=O)(=O)N2[C@@H](c3ccc(F)cc3)C(C(=O)O)=CC[C@H]2c2ccc3c(c2)OCO3)cc1 | -1 | 1 | . | 1 | -20 | . | . | 10
CCC(=O)Nc1ccc(Cl)c(NC(=O)c2ccc([N+](=O)[O-])cc2)c1 | 5 | 8 | i | 21 | -13 | -4 | -14 | -5
C=CCn1c(SCC(=O)NNC(=O)Nc2ccc(C)cc2)nnc1-c1ccccc1 | 1 | 5 | i | 2 | -1 | 3 | 3 | -12
O=C(O)c1ccc(NC(=S)NC(=O)c2ccc3ccccc3c2)cc1 | 3 | 5 | i | -98 | -27 | 9 | -6 | -7
CS(=O)(=O)c1ccc2nc(NC(=O)CCNC(=O)c3ccccc3Cl)sc2c1 | -5 | -2 | . | . | 11 | . | . | -3
O=C(COc1ccccc1Cl)NNC(=O)c1ccc(-n2cncn2)c([N+](=O)[O-])c1 | 1 | 0 | . | . | -13 | . | . | -7

The list goes on; the last three above are carried over.
SMILES | MT1-MMP act inh | MT1-MMP act inh RFP | Rce1 inhib | Env fusion inh | UUG fidelity | eIF4H FP inh | PABP polyA inh | CSC inhib | others
O=C(O)c1ccc(NC(=S)NC(=O)c2ccc3ccccc3c2)cc1 | 3 | 5 | i | -98 | -27 | 9 | -6 | -7
CS(=O)(=O)c1ccc2nc(NC(=O)CCNC(=O)c3ccccc3Cl)sc2c1 | -5 | -2 | . | . | 11 | . | . | -3
O=C(COc1ccccc1Cl)NNC(=O)c1ccc(-n2cncn2)c([N+](=O)[O-])c1 | 1 | 0 | . | . | -13 | . | . | -7
CCOC(=O)c1sc2nc(NC(=O)COc3ccccc3)sc2c1C | 1 | 6 | i | -6 | -7 | -8 | -1 | 7
CC(C)Cc1nc(N2CCC(C(N)=O)CC2)c2nnn(Cc3ccccc3)c2n1 | 3 | 2 | i | -42 | -16 | 19 | 3 | -8
CCOC(=O)N1CCN(c2c(-c3ccc(C(C)C)cc3)c(=O)c2=O)CC1 | -4 | -3 | i | -59 | -7 | -12 | -11 | -3
O=C1C2CCCN2C(c2cccc(Br)c2)N1c1ccc(F)cc1 (configuration not stated) | 0 | -1 | i | -41 | 9 | -7 | 14 | -17
COC(=O)/C(C#N)=C/c1c(N2CCN(Cc3ccc4c(c3)OCO4)CC2)nc2c(C)cccn2c1=O | 3 | 2 | i | 6 | . | -6 | -5 | 1
CC1(C(=O)NS(=O)(=O)c2ccc(C#N)cc2)CCN1C(=O)c1cccc2ccccc12 (configuration not stated) | -1 | 1 | . | -17 | -14 | . | . | .
Cn1cnc([N+](=O)[O-])c1C(=O)Nc1cccc([N+](=O)[O-])c1 | -1 | 5 | i | 7 | -8 | -2 | 64 | -7 | eIF4H FP inh retest=-4;PABP polyA inh retest=6
Fc1ccc(/C=N/N2CCN(Cc3ccccc3)CC2)cc1 | 0 | 0 | i | -7 | -8 | -10 | 8 | -5
CC(=O)Nc1ccc(S(=O)(=O)Nc2ccc(S(=O)(=O)Nc3nc(C)cc(C)n3)cc2)cc1 | -3 | 0 | i | 13 | -10 | -4 | -2 | -9
COc1ccc(NC(=S)NC(NC(=O)c2ccc(Cl)cc2Cl)C(Cl)(Cl)Cl)c([N+](=O)[O-])c1 (configuration not stated) | 2 | -8 | i | . | -31 | -11 | -5 | .
O=C(c1cc(S(=O)(=O)N2CCOCC2)ccc1Cl)N1CCc2ccccc2C1 | 2 | -1 | i | -6 | -3 | -8 | 5 | 4
COc1ccc(-c2ccc(C(=O)NCc3ccc(N(C)C)cc3)c3occc23)c(C)c1 | -1 | -12 | . | -2 | -17 | . | . | .
COc1ccc(/C=N/NC(=O)Nc2nonc2N)cc1 | 0 | -1 | i | . | -33 | -3 | 0 | -5
O=C1N(Cc2cccnc2)C[C@@H]2C[C@@H](c3ccc4nonc4c3)N3CCC[C@@]123 | 4 | 9 | i | 10 | 5 | -5 | 16 | -14
CCC(=O)c1ccc(OC(=O)c2ccc(Br)o2)cc1 | 7 | 3 | . | . | -5 | . | . | -16
CCOC(=O)c1c(N)sc2c1CCSC2 | -13 | 1 | i | . | -19 | 111* | 118* | 5
CCOC(=O)C1(CCCc2ccccc2)CCN(C(=O)C2=C(C)OCCO2)CC1 | -1 | -8 | i | 11 | -2 | 4 | 0 | .
CC(=O)Nn1cnc2c(c1=O)C1(CCCC1)Cc1ccccc1-2 | . | . | . | -34 | -11 | -2 | 2 | -11
O=c1nc2sc3ccccc3n2c(=O)n1-c1cccc(Cl)c1 | 3 | -1 | i | . | -8 | -2 | -6 | 8
Cc1ccccc1NC(=O)c1cc2c(=O)n3cccc(C)c3nc2s1 | 0 | 0 | i | -7 | -17 | -3 | -7 | 12
OC(CNCCN1CCNCC1)Cc1ccccc1 (configuration not stated) | -1 | 5 | . | -177 | -23 | . | . | .
O=c1cc(CN2CCCCC2)c2c(ccc3ccccc32)o1 | 1 | 4 | . | 11 | -6 | . | . | .
O=C(Nc1nnc(-c2ccccc2Cl)s1)C1CCN(S(=O)(=O)c2ccc(Cl)cc2)CC1 | -1 | 0 | i | 8 | . | 2 | 4 | .
CC1(c2ccccc2)CC(C)(C)N(C(=O)c2cc([N+](=O)[O-])cc([N+](=O)[O-])c2)c2ccccc21 (configuration not stated) | -3 | -9 | i | -19 | . | -3 | -13 | 14
COc1ccccc1-c1nc(SCC(=O)Nc2ccccc2)n[nH]1 | -1 | -1 | i | -2 | -14 | -2 | 19 | -1
C=CCN1C(=O)c2ccc(C(=O)N(C)CC(=O)Nc3c(C)cccc3C)cc2C1=O | -1 | -2 | i | -40 | -3 | . | . | -18
COc1ccc(NC(=O)c2ccc(=O)oc2)cc1 | -6 | 4 | i | 25 | -4 | -2 | -5 | .
CCOC(=O)NC(c1cccc(Cl)c1)C1CCCCCC1=O (configuration not stated) | -10 | 0 | i | -24 | 8 | 0 | 7 | -9
CCC(CC)C(=O)Nc1cccc(S(=O)(=O)c2cccc(NC(=O)C(CC)CC)c2)c1 | 1 | 3 | i | 2 | -4 | -4 | 11 | 1
COc1ccc(C(C(=O)NC2CCCC2)N(C(=O)c2snc(C(N)=O)c2N)C2CCCC2)cc1OC (configuration not stated) | -1 | 4 | i | 5 | 3 | 87 | -2 | -9 | eIF4H FP inh retest=-1;PABP polyA inh retest=5

Molecules listed so far that have bromine, in the order listed:
SMILES | MT1-MMP act inh | MT1-MMP act inh RFP | Rce1 inhib | Env fusion inh | UUG fidelity | eIF4H FP inh | PABP polyA inh | CSC inhib | others
Cc1c(Br)c(C(F)(F)F)nn1CC(=O)N(C)C1CCCCC1 | 0 | 1 | i | 7 | -12 | 3 | 1 | -10
O=C1C2CCCN2C(c2cccc(Br)c2)N1c1ccc(F)cc1 (configuration not stated) | 0 | -1 | i | -41 | 9 | -7 | 14 | -17
CCC(=O)c1ccc(OC(=O)c2ccc(Br)o2)cc1 | 7 | 3 | . | . | -5 | . | . | -16

(listing goes on)
SMILES | MT1-MMP act inh | MT1-MMP act inh RFP | Rce1 inhib | Env fusion inh | UUG fidelity | eIF4H FP inh | PABP polyA inh | CSC inhib | others
CC1(C)Cc2c(cnn2-c2cccc(F)c2)C(NC(=O)c2ccc(=O)[nH]n2)C1 (configuration not stated) | 3 | 1 | i | -2 | -7 | . | . | -5
CCC(=O)Nc1ccc(NC(=O)c2oc3ccccc3c2C)cc1 | 5 | -2 | i | -4 | -21 | 5 | -2 | -1
CC(=O)Nc1ccc(C(=O)n2cnc3cc(C)c(C)cc32)cc1 | 4 | 4 | i | . | -10 | 3 | 0 | -14
CN1CCN(C(=O)CN2C(=O)CC(C)(C)S(=O)(=O)c3ccccc32)CC1 | 12 | 4 | i | -67 | -12 | -4 | -2 | -3
COc1ccc(NC(=O)CSc2nnc3n2CCCCC3)cc1S(=O)(=O)N1CCOCC1 | -1 | 0 | . | 0 | -11 | . | . | -15
Cc1noc(C)c1CSCC(=O)Nc1nc2ccccc2s1 | 0 | 1 | i | 9 | -14 | -5 | -13 | 0
CCc1ccccc1NC(=S)N(CCN1CCOCC1)Cc1ccccc1F | -6 | -1 | i | 19 | . | -5 | 36 | .
N#Cc1ccccc1OCC(=O)N(Cc1nnc(-c2ccccc2Cl)o1)C1CC1 | -1 | 1 | i | 4 | . | . | . | -10
O=C1CN(C(=O)CNC(=O)c2cccc(Cl)c2)c2ccccc2N1 | -1 | 2 | i | -8 | . | -5 | 7 | -9
COc1cccc(NC(=O)CCNS(=O)(=O)c2ccc3c(c2)oc(=O)n3C)c1 | -1 | 0 | i | 1 | . | 7 | -3 | -16
O=C(Nc1ccccc1)C(c1ccccc1)C1CCCC1 (configuration not stated) | 1 | -2 | i | 18 | . | 0 | 1 | .
CCN(CC)S(=O)(=O)c1ccc(C(=O)Nc2nnc(CSC)o2)cc1 | -1 | 2 | . | 5 | . | 3 | 8 | 16
Cc1ccc(SCC(=O)OC(C)C(=O)NCc2ccccc2)cc1 (configuration not stated) | -2 | 5 | i | -3 | -9 | . | . | -11
CC1(C)NC(=O)NC2(C)NC(=O)NC(C)(C)C12 (configuration not stated) | -3 | 3 | . | -28 | -9 | -9 | -2 | -2
CC1(C(=O)Nc2cccc3cccnc23)CCN1Cc1ccc(-c2ccccc2)o1 (configuration not stated) | 6 | 8 | . | -2 | -16 | . | . | .
O=C(Cc1ccccc1)NC1CCN(Cc2ccccc2)CC1 | -2 | -2 | i | 6 | . | 6 | 13 | -2
Cn1c(=O)c(=O)n(C)c2cc(S(=O)(=O)N3CCN(Cc4ccccc4)CC3)ccc21 | 3 | 2 | i | -16 | 1 | 7 | -3 | -8
CC(=O)N1CCN(S(=O)(=O)c2ccc(Cl)cc2F)CC1 | -9 | 0 | i | 1 | -11 | -6 | 10 | -8
Cc1ccc(NC(=S)N2CCC(NC(=O)c3ccc(F)cc3)CC2)cc1 | 3 | 1 | i | -1 | -14 | -3 | 1 | .
C=CCN1CCCC1CNC(=O)c1cc2[nH]nnc2cc1OC (configuration not stated) | 1 | 5 | . | 11 | 12 | . | . | -2
CN(CC(=O)Nc1ccc(F)c(F)c1F)C(=O)c1ccc2c(c1)OCCO2 | 9 | 4 | i | -11 | . | . | . | -14
CC(O)(CS(=O)(=O)c1ccc(Br)cc1)c1ccccc1 (configuration not stated) | 0 | 3 | i | 8 | -11 | -3 | -4 | -7

A draw from above in order of length of the SMILES, descending.
SMILES | MT1-MMP act inh | MT1-MMP act inh RFP | Rce1 inhib | Env fusion inh | UUG fidelity | eIF4H FP inh | PABP polyA inh | CSC inhib | others
CN(CC(=O)Nc1ccc(F)c(F)c1F)C(=O)c1ccc2c(c1)OCCO2 | 9 | 4 | i | -11 | . | . | . | -14
CC(O)(CS(=O)(=O)c1ccc(Br)cc1)c1ccccc1 (configuration not stated) | 0 | 3 | i | 8 | -11 | -3 | -4 | -7
C=CCN1CCCC1CNC(=O)c1cc2[nH]nnc2cc1OC (configuration not stated) | 1 | 5 | . | 11 | 12 | . | . | -2

Source: PubChem BioAssay (several laboratories)
